Vaccinia stage = blocks a specific stage of Vaccinia orthopoxvirus infection, primary screen, cell-based, single point. Vaccinia-infected cells, mCherry/Venus stage reporter fluorescence; hits give low values; some inactives read as strong as hits. activity change (mCherry), % (test concentration not listed). actives 0.01% (n = 89,000);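 active means mCherry past -33% and 40 or more points under the early reporter, replicates agreeing; inconclusive means past -33% without that gap or agreement; tested in A549 cells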;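 further: scaled between vehicle wells and reference inhibitor wells; 23 nL library stock went into each well; one replicate is shown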
Vaccinia stage Venus = further read-out of Vaccinia stage, marked with its call; activity change (Venus), %; measured here: Venus reporter, other viral stage;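 negative = less Venus signal; first of two replicates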
Numbers without * were called inactive; ? = inconclusive; · = no result given; & = joins results of further samples. Only part of the results is shown, so the mix of outcomes need not match the whole.

1) COc1ccc(CN2CC3(CN(C(C)=O)C3)c3c([nH]c4cc(OC)ccc34)[C@@H]2CO)cc1
2) C[C@H]1CN([C@@H](C)CO)C(=O)c2cc(NC(=O)C3CC3)ccc2O[C@@H]1CN(C)Cc1ccc(Cl)c(Cl)c1
3) Cc1ccc(-c2ccc([C@@H]3[C@H]4CN(C(=O)Cc5ccccn5)CC(=O)N4[C@H]3CO)cc2)cc1
4) C/C=C/c1ccc2c(c1)O[C@H](CN(C)C(C)=O)[C@H](C)CN([C@@H](C)CO)S2(=O)=O
5) C[C@H](CO)N1C[C@H](C)[C@H](CN(C)C)Oc2ncc(C#Cc3ccc(F)cc3)cc2C1=O
6) CCCC(=O)N1CC2(C1)CN(C(C)=O)[C@H](CO)c1c2c2ccc(OC)cc2n1C
7) Cc1ccc(S(=O)(=O)N[C@H]2CC[C@@H](CC(=O)N3CCC(Cc4ccccc4)CC3)O[C@@H]2CO)cc1
8) CCCC#Cc1ccc2c(c1)O[C@@H](CN(C)CC1CC1)[C@@H](C)CN([C@H](C)CO)S2(=O)=O
9) CCCNC(=O)C[C@@H]1CC[C@H]2[C@H](COc3ccc(NC(=O)c4ccc(C(F)(F)F)cc4)cc3C(=O)N2C)O1
10) Cc1ccc(S(=O)(=O)N[C@@H]2CC[C@H](CCNS(=O)(=O)Cc3ccccc3)O[C@H]2CO)cc1

screen / no.,1,2,3,4,5,6,7,8,9,10
Vaccinia stage,-3,0,-4,14,-10&-15,8,-30,-15,?,-18
Vaccinia stage Venus,-7,1,1,11,-15&-12,4,-25,-14,·,-1

11) Cc1noc(C)c1S(=O)(=O)Nc1ccc2c(c1)C(=O)N([C@@H](C)CO)C[C@H](C)[C@H](CN(C)C(=O)c1ccccc1)OCCCC[C@@H](C)O2
12) C/C=C/c1cnc2c(c1)C(=O)N([C@H](C)CO)C[C@H](C)[C@@H](CN(C)C(=O)Cc1ccccc1)O2
13) O=C(C1CC1)N1CCCCN2[C@H](CO)[C@@H](c3ccc(C#CC4CC4)cc3)[C@@H]2C1
14) COc1cccc(-c2ccc([C@@H]3[C@@H](CO)N4C(=O)CN(C(=O)C5CC5)C[C@@H]34)cc2)c1
15) CC(=O)N1[C@H](CO)[C@H](c2ccccc2)[C@@H]1CN(C(=O)c1ccc(F)cc1)C(C)C
16) COc1ccccc1-c1ccc2c(c1)[C@H]1[C@H](CCN1S(=O)(=O)c1cccc(C)c1)[C@H](CO)N2
17) CCC(=O)N1[C@H](CO)[C@H](c2ccc(-c3ccccc3)cc2)[C@@H]1CNC(=O)C1CC1
18) C[C@H]1CCCCO[C@H](CN(C)Cc2ccncc2)[C@@H](C)CN([C@@H](C)CO)C(=O)c2cc(NC(=O)Nc3ccccc3)ccc2O1
19) O=C(C[C@H]1C[C@@H]2c3cc(NC(=O)C4CCC4)ccc3O[C@@H]2[C@@H](CO)O1)NCc1cccc(F)c1
20) COc1ccc(-c2cn(CC[C@@H]3CC[C@@H](NS(=O)(=O)c4ccccc4C)[C@H](CO)O3)nn2)cc1

screen / no.,11,12,13,14,15,16,17,18,19,20
Vaccinia stage,12,39,10,-5,0,-30,6,-12,-25,-4
Vaccinia stage Venus,9,20,8,-6,-2,-26,4,-13,-7,0

21) COc1ccc(CNC(=O)C[C@@H]2C[C@H]3c4cc(NS(C)(=O)=O)ccc4O[C@H]3[C@@H](CO)O2)cc1
22) C/C=C/c1ccc([C@@H]2[C@@H](CO)N3C(=O)CN(Cc4ccc(C(=O)OC)cc4)C[C@H]23)cc1
23) Cc1noc(C)c1S(=O)(=O)Nc1ccc2c(c1)C(=O)N([C@H](C)CO)C[C@H](C)[C@H](CN(C)Cc1ccc3c(c1)OCO3)OCCCC[C@@H](C)O2
24) C[C@@H]1CN([C@@H](C)CO)C(=O)Cc2cc(NS(=O)(=O)c3ccc(Cl)cc3)ccc2O[C@@H]1CN(C)C(=O)NC1CCCCC1
25) C[C@H](CO)N1C[C@H](C)[C@H](CN(C)Cc2ccc(C(=O)Nc3ccccc3N)cc2)Oc2ccc(NC(=O)Nc3cccc4ccccc34)cc2C1=O
26) C[C@H](CO)N1C[C@H](C)[C@H](CN(C)S(=O)(=O)c2ccccc2)OCc2cnnn2CCCC1=O
27) COc1ccc(NC(=O)Nc2ccc3c(c2)C(=O)N([C@@H](C)CO)C[C@H](C)[C@H](CN(C)C(=O)C2CCCCC2)OCCCC[C@H](C)O3)cc1
28) C[C@H](CO)N1C[C@H](C)[C@@H](CN(C)Cc2ccc(-c3ccccc3)cc2)Oc2c(cccc2N(C)C)C1=O
29) Cc1noc(C)c1NC(=O)Nc1ccc2c(c1)C(=O)N([C@H](C)CO)C[C@H](C)[C@@H](CN(C)S(=O)(=O)c1ccc(F)cc1)O2
30) C[C@@H]1CN([C@@H](C)CO)C(=O)Cc2cc(NS(=O)(=O)c3cn(C)cn3)ccc2O[C@@H]1CN(C)S(=O)(=O)c1ccc(Cl)cc1

screen / no.,21,22,23,24,25,26,27,28,29,30
Vaccinia stage,13,16,-23,7,6,11,-31,?,13,3
Vaccinia stage Venus,14,8,-14,9,6,7,-27,·,19,0

31) C[C@@H]1CCCCO[C@@H](CN(C)Cc2ccncc2)[C@H](C)CN([C@H](C)CO)C(=O)c2cc(NS(=O)(=O)c3ccc(Cl)cc3)ccc2O1
32) C[C@@H]1CN([C@@H](C)CO)S(=O)(=O)c2ccc(-c3ccncc3)cc2O[C@@H]1CN(C)C(=O)Nc1ccc(F)cc1
33) COc1ccc(NC(=O)N2C[C@@H]3[C@H](c4ccccc42)[C@H](CO)N3C(=O)C2CCCC2)cc1
34) CO[C@@H]1CN(C)C(=O)c2ccc(NS(=O)(=O)c3ccccc3)cc2OC[C@@H](C)N(C)C[C@H]1C
35) C/C=C/c1ccc([C@H]2[C@@H](CO)N(CC3CC3)C23CN(C(=O)c2ccc4c(c2)OCO4)C3)cc1
36) O=C(Nc1ccccc1F)N1CC(=O)N2[C@H](CO)[C@H](c3ccc(C#Cc4ccccc4)cc3)[C@@H]2C1
37) COCCNC(=O)C[C@@H]1C[C@H]2c3cc(NC(=O)C4CCC4)ccc3O[C@H]2[C@@H](CO)O1
38) C[C@H](CO)N1C[C@H](C)[C@H](CN(C)C(=O)CN(C)C)Oc2cc(-c3cncnc3)ccc2S1(=O)=O
39) COc1ccc(CN(C)C[C@H]2Oc3ccc(NC(=O)C4CC4)cc3C(=O)N([C@H](C)CO)C[C@@H]2C)cc1
40) O=C(c1cccnc1)N1C[C@H]2[C@@H](c3ccccc31)[C@@H](CO)N2CC1CCCC1

screen / no.,31,32,33,34,35,36,37,38,39,40
Vaccinia stage,-17,9,-1,7,-19,-20,2,11,5,3
Vaccinia stage Venus,-10,5,7,7,-10,-14,5,12,4,4

41) C[C@@H]1CN([C@@H](C)CO)C(=O)Cc2cc(NC(=O)CCN3CCOCC3)ccc2O[C@H]1CN(C)Cc1ccc(-c2ccccc2)cc1
42) CN1CCCCN2[C@H](C1)[C@@H](c1ccc(C#CC3(O)CCCC3)cc1)[C@@H]2CO
43) CCCN(C)C[C@@H]1Oc2cc(-c3ccccc3OC)ccc2S(=O)(=O)N([C@H](C)CO)C[C@@H]1C
44) N#C[C@@H]1[C@@H](c2ccc(-c3cccnc3)cc2)[C@H](CO)N1C(=O)C1CCOCC1
45) C[C@H](CO)N1C[C@H](C)[C@H](CN(C)Cc2ccc(Oc3ccccc3)cc2)Oc2ccc(NC(=O)C3CC3)cc2C1=O
46) C[C@@H]1CN([C@H](C)CO)C(=O)c2cc(NC(=O)c3ccncc3)ccc2O[C@@H](C)CCCCO[C@@H]1CN(C)C(=O)c1ccccc1
47) CO[C@@H]1CN(C)C(=O)c2cc(NC(=O)Cc3ccccc3)ccc2OC[C@@H](C)N(CC2CC2)C[C@H]1C
48) C/C=C/c1cnc2c(c1)C(=O)N([C@H](C)CO)C[C@@H](C)[C@H](CN(C)C(=O)NCCC)O2
49) Cc1ccc(S(=O)(=O)Nc2ccc3c(c2)CC(=O)N([C@@H](C)CO)C[C@@H](C)[C@@H](CN(C)C(=O)Nc2ccc(C(F)(F)F)cc2)O3)cc1
50) CCNC(=O)C[C@H]1CC[C@H]2[C@@H](COC[C@H](O)CN2C(=O)c2ccccn2)O1

screen / no.,41,42,43,44,45,46,47,48,49,50
Vaccinia stage,?,7,1,14,-33,11,-13,24,1,3
Vaccinia stage Venus,·,7,8,6,-29,6,-14,1,2,-1

51) COc1ccc2c3c(n(C)c2c1)[C@H](CO)N(C(C)=O)CC31CN(C(=O)Nc2ccccc2F)C1
52) Cc1noc(C)c1NC(=O)N(C)C[C@@H]1Oc2ccc(NS(=O)(=O)c3cn(C)cn3)cc2CC(=O)N([C@H](C)CO)C[C@@H]1C
53) CC(=O)N1CC2(C1)[C@H](c1ccccc1)[C@@H](CO)N2C(=O)Cc1ccccc1
54) O=C(N[C@@H]1C=C[C@@H](CC(=O)N2CCN(c3ccccc3)CC2)O[C@H]1CO)c1ccncc1
55) O=C(O)C1=C[C@@H](c2csc3ccccc23)C[C@@H](OCCCCO)O1
56) COc1ccc(NC(=O)N(C)C[C@@H]2Oc3ncc(C#CC(C)(C)O)cc3C(=O)N([C@H](C)CO)C[C@@H]2C)cc1
57) O=C(C[C@H]1C[C@@H]2c3cc(NC(=O)NC4CCCCC4)ccc3O[C@@H]2[C@@H](CO)O1)NCC1CC1
58) C[C@H]1CN([C@@H](C)CO)C(=O)c2cc(C#Cc3ccncc3)cnc2O[C@H]1CN(C)C(=O)c1ccccc1F
59) C[C@@H]1CN([C@@H](C)CO)C(=O)c2cc(C#C[C@@H](C)O)cnc2O[C@H]1CN(C)Cc1cncnc1
60) CCC(=O)N1C[C@@H](C)[C@H](OC)CN(C)C(=O)c2cc(NC(=O)Nc3ccc(Cl)cc3)ccc2OC[C@H]1C

screen / no.,51,52,53,54,55,56,57,58,59,60
Vaccinia stage,-1,7,17,-4,-8,28,4,0,8,-33
Vaccinia stage Venus,4,4,14,3,-12,10,1,11,10,-28

Quoted at random: 4 compounds from above.
28) C[C@H](CO)N1C[C@H](C)[C@@H](CN(C)Cc2ccc(-c3ccccc3)cc2)Oc2c(cccc2N(C)C)C1=O
18) C[C@H]1CCCCO[C@H](CN(C)Cc2ccncc2)[C@@H](C)CN([C@@H](C)CO)C(=O)c2cc(NC(=O)Nc3ccccc3)ccc2O1
35) C/C=C/c1ccc([C@H]2[C@@H](CO)N(CC3CC3)C23CN(C(=O)c2ccc4c(c2)OCO4)C3)cc1
29) Cc1noc(C)c1NC(=O)Nc1ccc2c(c1)C(=O)N([C@H](C)CO)C[C@H](C)[C@@H](CN(C)S(=O)(=O)c1ccc(F)cc1)O2

screen / no.,28,18,35,29
Vaccinia stage,?,-12,-19,13
Vaccinia stage Venus,·,-13,-10,19

(next part)
61) CCCNC(=O)[C@@H]1c2ccccc2C(=O)N(CC23CC4CC(CC(C4)C2)C3)[C@H]1c1ccc(CO)cc1
62) COC(=O)[C@H]1[C@H](CO)[C@H]2Cn3c(ccc(-c4ccc(F)cc4)c3=O)[C@@H]1N2C(=O)c1ccccc1F
63) CCCN(C)C[C@H]1OCCCC[C@H](C)Oc2ccc(NC(=O)C3CCCCC3)cc2C(=O)N([C@@H](C)CO)C[C@H]1C
64) C[C@H]1CN([C@@H](C)CO)C(=O)c2cccc(NC(=O)Nc3cccc4ccccc34)c2O[C@H]1CN(C)C
65) C[C@H]1CN([C@@H](C)CO)C(=O)c2cccc(NS(=O)(=O)c3cn(C)cn3)c2O[C@H]1CN(C)Cc1ccc(C(F)(F)F)cc1
66) CCCN1C[C@H](C)[C@H](OC)CN(C)C(=O)c2cc(NC(=O)c3cccc(F)c3)ccc2OC[C@@H]1C
67) CCC(=O)N1[C@H](C(=O)N2CCCCC2)[C@@H](CO)[C@@H]2Cn3c(ccc(-c4ccccc4)c3=O)[C@@H]21
68) C[C@@H]1CN([C@@H](C)CO)C(=O)c2cc(C#Cc3cccc(F)c3)cnc2O[C@@H]1CN(C)C(=O)C1CCC1
69) Cc1noc(C)c1NC(=O)Nc1ccc2c(c1)C(=O)N(C)[C@@H]1CC[C@@H](CC(=O)N[C@@H]3CCN(Cc4ccccc4)C3)O[C@H]1CO2
70) C[C@@H]1CN([C@H](C)CO)S(=O)(=O)c2ccc(-c3cncnc3)cc2O[C@@H]1CN(C)Cc1ccccn1

screen / no.,61,62,63,64,65,66,67,68,69,70
Vaccinia stage,7,-6,-9,-2,-2,-19,9,-19,2,8
Vaccinia stage Venus,7,0,-12,-2,10,-6,8,-26,2,4

71) Cc1ccc(-c2ccc([C@H]3[C@@H](CO)N4CCCCN(S(=O)(=O)c5cccc(C)c5)C[C@H]34)cc2)cc1
72) COc1ccc(CNC(=O)C[C@H]2C=C[C@H](NC(=O)Nc3ccc4c(c3)OCO4)[C@H](CO)O2)cc1
73) O=C(C[C@H]1CC[C@H]2[C@@H](COC[C@@H](O)CN2S(=O)(=O)c2ccc(F)cc2)O1)N1CCc2ccccc2C1
74) C[C@H](CO)N1C[C@H](C)[C@H](CN(C)S(=O)(=O)c2cccc(C#N)c2)OCc2cnnn2CCCC1=O
75) O=C([C@H]1[C@H](CO)[C@H]2Cn3c(ccc(-c4ccccc4F)c3=O)[C@@H]1N2C(=O)C1CCC1)N1CCOCC1
76) O=C(C[C@H]1CC[C@@H]2[C@H](COC[C@@H](O)CN2CCC(F)(F)F)O1)NCC1CC1

screen / no.,71,72,73,74,75,76
Vaccinia stage,?,5,-14,11,10,8
Vaccinia stage Venus,·,9,-8,9,-1,5

Bioassay records deposited in PubChem by Broad Institute.
